Bioassay records: PubChem, National Center for Advancing Translational Sciences (NCATS)
StopGo reporter – lowers the luciferase signal of an FMDV 2A StopGo reporter. hit rate 1.2% among 410,000. human cells with a luciferase reporter of 2A StopGo recoding; control for the full effect not named in the record. Potency, µM (top dose mostly 57.9 µM), for the others: top-dose signal change, negative = less light; active = well fitted falling curve with a large enough effect; inconclusive = small, poorly fitted or top-dose-only effect; inactive = no such curve, though single readings can be large or run the other way; tested in HEK293T cells; further: on the % scale 0 is the no-effect control and ±100 the full control effect; nearly all actives have a fitted effect of over 45% in size; luciferase light after 4 h
SARS PLpro yeast – blocks SARS-CoV papain-like protease in a yeast assay; S. cerevisiae expressing SARS-CoV PLpro, growth rescue; control for the full effect not named in the record; Potency, µM (highest dose often 32.9 µM), inactives show top-dose activity, positive = growth rescue; hit rate 0.19% among 330,000; active means well fitted rising curve with a large enough effect; inconclusive means small, poorly fitted or top-dose-only effect; inactive means no such curve, though single readings can be large or run the other way; further: 0% is about no effect; nearly all actives have a fitted effect of over 55% in size; growth read by luminescence after 48 h
LASV entry inh – blocks Lassa virus binding to or entry into cells. Lassa virus pseudotype entry inhibition, cell reporter; control for the full effect not named in the record. Potency, µM (doses to about 37.9 µM), without a hit: at the highest dose activity change, negative = inhibition, usual class: inhibitors. hit rate 1.2% among 300,000. AID 540256; active means well fitted inhibition curve with a large enough effect; inconclusive means small, poorly fitted or top-dose-only effect, or effect the other way; inactive means flat fitted curve, though single readings scatter; tested in HEK293 cells; further: on the % scale 0 is the no-effect control and ±100 the full control effect; nearly all actives have a fitted effect of over 50% in size; luciferase read-out
Marburg entry inh – Marburg virus entry inhibition; hit rate 1.8% among 300,000; Potency, µM (top dose mostly 37.8 µM), for the others: top-dose activity change, negative = inhibition, most hits filed as inhibitors; Marburg virus pseudotyped entry inhibition, cell reporter; control for the full effect not named in the record; about a third of the inactives were read at about 46 µM; active = well fitted inhibition curve with a large enough effect; inconclusive = small, poorly fitted or top-dose-only effect, or effect the other way; inactive = flat fitted curve, though single readings scatter; tested in HEK293 cells; about a fifth of its hits are not listed in these tables; further: on the % scale 0 is the no-effect control and ±100 the full control effect; luciferase read-out
Cruzain Triton – inhibitors of Trypanosoma cruzi cruzain with detergent; purified cruzain, Z-FR-AMC fluorescence, 0.01% Triton; Potency, µM, without a hit: max response, negative = inhibition, usual class: inhibitors; hit rate 0.43% among 200,000;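 further: plate controls were neutral wells for no effect and buffer without enzyme for full effect; nearly all actives have a fitted effect of over 40% in size; top concentration of the series not given in the record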
Target sequence (P25779 123-467 limits assumed): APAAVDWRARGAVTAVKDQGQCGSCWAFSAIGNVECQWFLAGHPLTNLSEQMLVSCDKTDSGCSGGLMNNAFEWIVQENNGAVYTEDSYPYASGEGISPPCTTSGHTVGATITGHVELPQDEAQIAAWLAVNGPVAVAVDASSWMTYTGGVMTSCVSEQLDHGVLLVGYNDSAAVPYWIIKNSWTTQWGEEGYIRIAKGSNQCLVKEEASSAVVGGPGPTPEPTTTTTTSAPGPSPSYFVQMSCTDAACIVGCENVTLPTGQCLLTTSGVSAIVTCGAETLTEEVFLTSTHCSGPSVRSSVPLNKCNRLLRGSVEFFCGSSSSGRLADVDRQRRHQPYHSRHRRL
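Cysteine protease activity tested under reducing, mildly acidic conditions (100 mM sodium acetate pH 5.5, 5 mM DTT) plus 0.01% Triton X-100. Cruzain 1.5 nM; substrate Z-FR-AMC 2 uM; 15 min compound preincubation at room temperature.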
Cruzain inh noDet – cruzain (T. cruzi) inhibition without detergent; P25779; purified cruzain, Z-FR-AMC fluorescence, no detergent; Potency, µM, for inactives: max response, negative = inhibition, most hits filed as inhibitors; hit rate 2.3% among 200,000; AID 1476;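 further: plate controls were enzyme without inhibitor for no effect and buffer without enzyme for full effect; nearly all actives have a fitted effect of over 40% in size; top concentration of the series not given in the record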
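Purified cruzain at 1.5 nM, pre-incubated 15 min with compound at room temperature in 100 mM sodium acetate pH 5.5, 5 mM DTT, 0.00005% Triton X-100. Reaction started with 2 uM Z-FR-AMC; AMC fluorescence increase over 60 s gives rate.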
NS1 function inh – blocks influenza NS1 protein function; S. cerevisiae slowed by influenza A NS1, growth recovery by OD600; hit rate 0.4% among 270,000; Potency, µM (highest dose often 46.1 µM), inactives show at the highest dose activity, positive = more growth; AID 2326; active means well fitted rising curve with a large enough effect; inconclusive means small, poorly fitted or top-dose-only effect; inactive means no such curve, though single readings can be large or run the other way; further: nearly all actives have a fitted effect of over 50% in size
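Recovery from NS1-induced slow growth read by OD600 in budding yeast switched to galactose assay medium (pH 6.0, -URA) at 1:100 dilution. Compound 23 nl per well; the matching strain lacking NS1 serves as control.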
RE007 growth inh – less growth of the S. pombe RE007 Vpr strain. S. pombe RE007 Vpr strain, BacTiter-Glo ATP luminescence, 24 h; control for the full effect not named in the record. Potency, µM (highest dose often 92.2 µM), inactives show at the top dose activity change, negative = less growth. AID 651644. hit rate 0.21% among 360,000; active = well fitted falling curve with a large enough effect; inconclusive = small, poorly fitted or top-dose-only effect; inactive = no such curve, though single readings can be large or run the other way;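 further: on the % scale 0 is the no-effect control and ±100 the full control effect; nearly all actives have a fitted effect of over 50% in size; the assay follows cell death caused by Vpr and the record does not say whether a fall means rescue or toxicity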
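Fission yeast strain RE007, carrying one chromosomally integrated HIV-1 vpr copy, was seeded at OD 0.01 in PMG+AL medium with 23 nL pinned compound. After 24 h at 30 °C and 99% humidity, viability was read by BacTiter-Glo luminescence.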
* = called active by the depositor; u = inconclusive; x = no result given; & = joins results of further samples; [ ] = another dose, or the depositor's remark. Unless noted, the call rests on the fitted dose curve; in most records, active means well fitted curve in the direction sought with a large enough effect; inconclusive means small, poorly fitted or top-dose-only effect, or another doubt; inactive means no such curve, though single readings can be large; an effect the other way counts as inactive or inconclusive. Potency means the concentration at half of the fitted maximal effect.

canonical_smiles | Marburg entry inh | Cruzain inh noDet | Cruzain Triton | NS1 function inh | RE007 growth inh | SARS PLpro yeast | LASV entry inh | StopGo reporter
O=C(Nc1ccc(Cl)c(C(F)(F)F)c1)C(=O)N1CCCCC1 | 12% | -14% | -5.2% | -4% | 25% | -29% | 0% | 41%[activator]
Cc1nc(SCC(=O)NC(C)(C#N)C2CC2)c2c(-c3cccs3)csc2n1 (stereo not drawn) | u | -8% | -7.0% | 3% | 11% | -21% | u | 0%
Cc1ccc(C(=O)OCC(=O)NC2CC2)s1 | u | x | x | x | -16% | 2% | -24%[46.1 µM] | 6%
COc1ccc(N2CCN(C(=O)CNC(=O)c3ccc(Br)o3)CC2)cc1 | -1% | x | x | -10% | 2% | 2% | u | -7%
COc1cccc(CNC(=O)CN(C)S(=O)(=O)c2ccc(Br)s2)c1 | -29%[46.1 µM] | x | x | -2% | 14% | 1% | -10% | -4%
O=[N+]([O-])c1ccc(-c2nc(NCC3CCCO3)c3ccccc3n2)cc1 (stereo not drawn) | -16% | x | x | -3% | -9% | -2% | -6% | -17%
COCCNc1ccnc2c(Cl)cccc12 | -9% | -1% | -3.5% | -6% | -17% | 9% | -3%[46.1 µM] | -9%
Cc1nn(-c2ccccc2)c(Cl)c1C(=O)N(C)CC(=O)Nc1cccc(F)c1 | -6%[46.1 µM] | x | x | x | 3% | -4% | -21% | -19%
COc1ccc(CC(=O)N/N=C/c2cc(Br)cs2)cc1OC | x | x | x | 6% | 13% | -5% | x | -20%
O=C(C1CCN(S(=O)(=O)c2cccc3nsnc23)CC1)N1CCc2ccccc21 | -5% | u | -1.4% | -10% | -22% | -10% | 15% | -27%
CCc1ccc(CN(C)CC(=O)Nc2ccc3c(c2)CCC3)cc1 | u | x | x | x | u | 1% | -18%[46.1 µM] | -19%
Cc1nn(CCc2nn[nH]n2)c2nc(C(F)(F)F)cc(C(F)(F)F)c12 | -6% | 13% | -2.6% | 2% | 15% | 5% | -4% | 11%
CCOc1ccc(CC(=O)NCc2ccc3c(c2)CCN3C(=O)c2ccc(F)cc2)cc1OCC | x | u | 2.0% | x | x | x | x | -16%
NS(=O)(=O)c1ccc(CCNC(=O)c2ccccc2Cc2ccccc2)cc1 | x | x | x | 7% | -3% | 0% | x | 0%
COc1ccc2c(c1)-c1nc(/N=C/c3c(O)ccc4ccccc34)sc1CC2 | u | u | -6.0% | -33% | u | -45% | -20% | 1%
COc1ccc(CCC(=O)NCc2ccco2)cc1 | u | -17% | -3.7% | 9% | 37% | -8% | 0% | -15%
CN(c1ccccc1C(=O)N1CCN(c2ccccc2F)CC1)S(=O)(=O)c1ccccc1 | -25% | x | x | -27% | 8% | -6% | -18% | 6%
Cc1c(C(=O)CN2CCCC(C)(C)C2)c2ccccc2n1C | x | x | x | -2% | -2% | 1% | x | -22%
CCN(CC(=O)Nc1c(F)cccc1F)C(=O)CNC(=O)c1ccc(Br)o1 | 8% | x | x | x | 1% | 1% | -3% | -5%
C/C(=N\OCC(=O)Nc1c(C)cc(C)cc1C)c1ccc2c(c1)OCCO2 | 10% | -14% | -2.4% | -15% | 0% | 5% | 18% | u
CCCc1cc(C(=O)N2CCCC(Nc3ccc(C)c(C)c3)C2)n(C)n1 (stereo not drawn) | 7% | x | x | -5% | -25% | -7% | u | -28%
N#Cc1ccc(-c2ccc(F)cc2)nc1Sc1ccccc1 | -10% | -27% | -1.1% | 6% | -19% | 9% | 1% | -7%
Cc1nc2cc(NC(=O)N3CCC(c4ccccc4)C3)ccc2n1C (stereo not drawn) | 4% | 8% | 1.8% | -3% | -23% | 2% | 19% | x
CC1=C(C(=O)N2CCOCC2)C(c2ccc(-c3ccccc3)cc2)NC(=S)N1 (stereo not drawn) | u | x | x | x | 1% | 1% | -6% | -23%
COc1ccc(CNc2ccc3c(c2)CCC3)cc1OC | 1% | -7% | 0.3% | 14% | x | -2% | x | x
Cc1onc(-c2ccccc2Cl)c1C(=O)N(C)Cc1ccccc1 | 2%[46.1 µM] | x | x | -4% | -14% | -1% | 21%[46.1 µM] | -3%
CC(C)=N/N=C1/NC(=O)C(c2ccc(Cl)cc2)S1 (stereo not drawn) | 15% | x | x | x | 9% | x | 20% | -14%
CCCC1=Nc2cc(C(=O)NCc3ccc(OC)cc3)ccc2Sc2ccc(C)cc21 | u | u | -2.0% | x | x | x | u | -9%
CC(=O)c1ccc(NC(=O)C(C)Sc2nnc3ccccn23)cc1 (stereo not drawn) | 10% | x | x | x | 1% | -7% | -6% | 1%
CC(=O)c1ccc(C(=O)N(Cc2cccnc2)c2nc3c(C)c(C)ccc3s2)cc1 | x | u | -3.3% | x | x | x | 13µM* | -12%
Cc1ccc(C(C)C)c(OCC(=O)Nn2c(=O)[nH]c3ccccc3c2=O)c1 | -20% | -8% | -9.8% | 23% | 7% | 11% | u | 0%
C/C(=N\NC(=O)c1nnn(-c2nonc2N)c1CN1CCCCC1)c1ccccc1O | u | x | x | 15% | -10% | 1% | 1% | 3%
Cc1ccc(-c2nn(C)c(=O)c3ccccc23)cc1S(=O)(=O)NCCN1CCOCC1 | -5%&-5% | -7% | 13% | 5% | -2% | -1% | 0% | -8%
O=C(Cn1nc(C(F)(F)F)c2c1CCCC2)Nc1ccc2c(c1)OCO2 | -7% | -9% | -0.6% | -11% | -2% | -6% | -3% | -17%
Cc1ccc(C2c3cccn3CCN2S(=O)(=O)c2ccc([N+](=O)[O-])cc2)cc1 (stereo not drawn) | x | 32µM* | -6.0% | x | x | x | u | -22%
CS(=O)(=O)N(CC(=O)N1CCN(Cc2ccccc2)CC1)c1ccccc1Br | x | x | x | -8% | 6% | 0% | x | -26%
CCOC(=O)c1ccc(NC(=O)CSc2c3c(nc4cc(Cl)ccc24)CCCC3)cc1 | 5%[46.1 µM] | -21% | -1.0% | x | x | x | 10%[46.1 µM] | u
Cc1ccc(N2C(=O)[C@@H]3[C@H](C2=O)C2c4ccccc4C=NN2[C@@H]3C(=O)c2ccc(Cl)cc2)cc1 (stereo partly drawn) | u | u | 0.3% | u | -3% | 6% | 7% | 0%
COCCNC(=O)c1ccccc1NC(=O)c1ccccc1N(C)S(=O)(=O)c1ccc(C)cc1 | 6% | 9% | -1.0% | -12% | 1% | x | 10% | 4%
COP(=O)(OC)C(Nc1ccc(Cl)cc1)c1ccccc1 (stereo not drawn) | x | x | x | 0% | 3% | 4% | x | -4%
CC(C)OCCCNS(=O)(=O)c1ccc2c(c1)oc(=O)n2C | x | 5% | 6.0% | 9% | 10% | 0% | x | 0%
COc1ccc(/C=C(\NC(=O)c2ccc(OC)cc2)C(=O)Nc2ccccc2C(=O)O)cc1 | x | x | x | 8% | 2% | 6% | x | -13%
Cc1ccc(NC(=O)Cn2c(=O)n(Cc3ccc4c(c3)OCO4)c(=O)c3ccc(C(=O)NC4CCCCC4)cc32)cc1 | 12%[46.1 µM] | -5% | 0.1% | x | x | x | 0%[46.1 µM] | -10%
O=C(C1CCCN(S(=O)(=O)c2cccs2)C1)N1CCc2ccccc2C1 (stereo not drawn) | u | -20% | 0.5% | -2% | 6% | -1% | -23% | -26%
C=CCC1(N(C(C)=O)c2ccccc2)CCCCC1 | u | x | x | -7% | 3% | 1% | 14% | -23%
COc1ccc(N/C(C)=C/C(=O)c2ccccc2)cc1 | 3% | -1% | -11% | -11% | -11% | 2% | 18% | 5%
CCOc1ccc(C2=NNC(c3cccs3)=Nc3ccc(OC)cc32)cc1 | -46% | u | -12% | u | -13% | -32% | 18% | 4%
Cn1cccc1/C=N/NC(=O)CNc1cccc2ccccc12 | u | x | x | 0% | 5% | 0% | u | -21%
Cc1ccc(-c2nnc(Nc3ccc(CC(N)=O)cc3)c3ccccc23)cc1S(N)(=O)=O | x | x | x | 0% | -1% | 1% | x | 6%
OCCNc1cc(-n2nc(-c3ccccc3)cc2-c2ccccc2)ncn1 | u | u | -4.0% | -9% | 15% | -2% | u | -24%
CCNS(=O)(=O)c1ccc(S(=O)(=O)N(Cc2ccccn2)C2CCCCC2)cc1 | 1%&-6% | 5% | 0.1% | -12% | 7% | 3% | 12% | -6%
Cc1cccc(N2CCN(c3nnc(C(F)(F)F)s3)CC2)c1 | x | x | x | -6% | -11% | -3% | x | -4%
CCn1ncc(C2=NOC(C(=O)Nc3c(C)nn(Cc4ccc(F)cc4)c3C)C2)c1C (stereo not drawn) | x | -2% | 0.4% | -3% | -11% | 4% | x | -2%
CCN(Cc1cc2ccccc2[nH]c1=O)C(=O)C1CCCCC1 | -1% | 2% | 0.5% | -7% | 3% | -2% | 1% | -12%
Nc1cc(=O)[nH]c(=O)n1Cc1ccccc1 | 1% | -7%&0% | 2.5%&-2.8% | -13% | 6% | 8% | 0% | 14%
CCOc1ccc(C(C)NC(=O)Nc2ccccc2C(=O)OC)cc1 (stereo not drawn) | u | -7% | 0.5% | 0% | 16% | 10% | -10% | -16%
C=CCn1c(C)cc(C(=O)COC(=O)c2n[nH]c(=O)c3ccccc23)c1C | u | x | x | x | 1% | 6% | u | -3%
CC(=O)N1CCCc2cc(S(=O)(=O)N(C)CC(=O)Nc3cccc(C)c3C)ccc21 | x | 7% | -0.9% | x | x | x | -1%[46.1 µM] | -28%
Cc1cccc(N2CCN(c3nc4nonc4nc3N3CCSCC3)CC2)n1 | -11%[46.1 µM] | x | x | -9% | 5% | -4% | -3% | -24%
CCOc1cccc2cc(-c3nnc(NCc4ccc5c(c4)OCO5)s3)c(=O)oc12 | 0% | -25% | -9.5% | 1% | 16% | -1% | -15% | -18%
